NPR1 antag = human Npr1 receptor antagonism; HEK293 hNpr1 GloSensor cGMP, ANP-stimulated luminescence; Potency, µM (series often up to 46.3 µM), for the others: top-dose activity change, negative = inhibition, most hits filed as inhibitors; 76,000 compounds, 1.6% hits; AID 1347048; active = well fitted inhibition curve with a large enough effect; inconclusive = small, poorly fitted or top-dose-only effect; inactive = no such curve, though single readings can be large or run the other way;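 note: nearly all actives have a fitted effect of over 60% in size; nearly all hits also lower the signal before the agonist is added; a reference antagonist and vehicle were the controls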
Target sequence (P16066 whole entry, looked up): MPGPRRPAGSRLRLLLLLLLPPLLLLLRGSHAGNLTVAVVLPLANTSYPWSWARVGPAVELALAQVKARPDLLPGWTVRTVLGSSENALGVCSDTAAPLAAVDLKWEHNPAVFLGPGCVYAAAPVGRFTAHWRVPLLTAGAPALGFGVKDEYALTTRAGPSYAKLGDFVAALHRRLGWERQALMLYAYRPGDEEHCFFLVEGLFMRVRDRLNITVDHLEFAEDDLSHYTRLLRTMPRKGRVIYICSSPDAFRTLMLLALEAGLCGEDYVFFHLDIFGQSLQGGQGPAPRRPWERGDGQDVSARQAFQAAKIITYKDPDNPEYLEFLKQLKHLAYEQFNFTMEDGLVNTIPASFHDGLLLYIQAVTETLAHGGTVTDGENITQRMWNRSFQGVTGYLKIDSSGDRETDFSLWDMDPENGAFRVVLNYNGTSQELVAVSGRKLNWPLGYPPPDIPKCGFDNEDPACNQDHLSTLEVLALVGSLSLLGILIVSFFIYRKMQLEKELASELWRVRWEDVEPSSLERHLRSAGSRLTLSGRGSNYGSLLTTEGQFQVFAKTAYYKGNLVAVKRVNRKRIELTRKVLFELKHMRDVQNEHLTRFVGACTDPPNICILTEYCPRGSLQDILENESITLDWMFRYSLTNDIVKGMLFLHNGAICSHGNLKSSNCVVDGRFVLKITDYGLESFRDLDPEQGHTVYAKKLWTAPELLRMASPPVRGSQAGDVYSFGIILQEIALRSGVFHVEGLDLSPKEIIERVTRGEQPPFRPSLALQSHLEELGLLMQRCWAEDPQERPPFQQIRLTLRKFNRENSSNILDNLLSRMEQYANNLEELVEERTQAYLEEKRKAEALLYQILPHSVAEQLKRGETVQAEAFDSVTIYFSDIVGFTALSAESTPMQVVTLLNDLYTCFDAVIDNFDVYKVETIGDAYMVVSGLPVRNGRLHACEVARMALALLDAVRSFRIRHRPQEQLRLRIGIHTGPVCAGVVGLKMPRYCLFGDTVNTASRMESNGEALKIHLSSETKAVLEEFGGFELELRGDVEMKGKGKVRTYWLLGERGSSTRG
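HEK293 cells stably expressing human Npr1 and cGMP GloSensor pGS-40F, loaded 2 h with 2% GloSensor reagent, given compound 30 min at room temperature. Luminescence read before and 20 min after 0.1 nM hNppA.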
An asterisk follows results filed as active; ? = inconclusive; [ ] = another dose, or the depositor's remark. % is set by controls: 0 for no effect and ±100 for the full control effect; potency is the fitted concentration of half-maximal effect.

SMILES	NPR1 antag
O=C([C@@H]1C[C@H](Oc2ccccc2)CN1C(=O)c1ccn[nH]1)N1CCOCC1	2.0%
Cc1ccc(-c2cccc(COc3cnc4c(ccn4CC(=O)O)c3)c2)cc1	3.2%[70.6 µM]
COc1ccccc1CCC(=O)N1CC[C@@H]2[C@@H](CCC(=O)N2CCN)C1	0.0%
Cc1cc(C(=O)N2CCC3(CC2)CC(CC(=O)NCc2ccccc2)CCO3)n[nH]1 (stereo unspecified)	0.0%
COCCNC(=O)[C@H]1C[C@H](Oc2cccnc2)CN1S(=O)(=O)c1ccc(F)cc1	-0.8%
O=C1CC2CCCC(C1)N2C(=O)C1CC1	-6.7%[70.6 µM]
CCC(CC)C(=O)N[C@H]1CO[C@H]2[C@@H]1OC[C@H]2O	0.3%[70.6 µM]
Cc1cc(C)n(CCC(=O)N2CCCCCC2c2nnc(-c3ccccc3)o2)n1 (stereo unspecified)	-1.3%
Cc1noc([C@H]2CCN(Cc3ccc(F)c(F)c3)C[C@H]2NC(=O)C2CC2)n1	1.1%
CC1(CCCCN2CCOCC2)COc2ccc(C(=O)Nc3ccc(Cl)cc3)cc2N1 (stereo unspecified)	-11.6%
CC(C)(C)C(=O)N1CC[C@@H](CC(=O)O)[C@@H](CCN2CCN(c3ccccc3)CC2)C1	3.1%[70.6 µM]
Cc1noc(C)c1CC(=O)N1CCC(Cc2noc(C3CC3)n2)C1 (stereo unspecified)	0.3%
CCC(=O)N(C1CCOCC1)C1CCN(S(=O)(=O)c2ccc(F)c(F)c2)CC1	1.4%
Cc1ncsc1CCC(=O)N1CC(=O)N(C2CCCCC2)CC(OCc2ccccc2)C1 (stereo unspecified)	2.8%
CNC(=O)N1CCC(C2CCN(C(=O)c3ccncc3)CC2)C1 (stereo unspecified)	5.1%
COCCCNc1ccc2nnc(-c3ccc(F)cn3)n2n1	-2.4%[70.6 µM]
COc1cccc(Nc2ncc3c(n2)C(C)(C(=O)Nc2nc(C)cs2)CC3)c1 (stereo unspecified)	-27.1%[70.6 µM]
O=C(Cn1cccc1-c1nc(-c2ccccc2)no1)Nc1ccc(F)c(F)c1	-13.3%
CC(C)(C)n1nnnc1C1CC2(CCOCC2)C(=O)N1Cc1cccs1 (stereo unspecified)	-17.1%
COc1ccc(CNC(=O)CC2CCOCC2)c(OC)c1	-19.5%
CCOCCOC1CCN(C(=O)CCc2ccccc2)CC1	-0.2%
CCOc1ccccc1CN1CCc2nc(N(C)C)[nH]c(=O)c2CC1	0.9%
CC1=NS(=O)(=O)N(Cc2ccccc2)C=C1C(=O)OCc1noc(CC2CCCCC2)n1	?
Cc1noc(-c2cccs2)c1C(=O)N(C)Cc1ccccc1	1.3%
COc1ccc(-c2ccc3c(n2)c(=O)ncn3Cc2ccccc2)cc1OC	-1.3%[70.6 µM]
Cc1nn(-c2ccccn2)c(C)c1[C@@H]1C=C[C@@H](NC(=O)CCC(=O)O)C1	-0.4%[70.6 µM]
CCN1c2cc(C(=O)NCc3cccc(OC)c3)ccc2C(=O)N2CCCCCC21 (stereo unspecified)	-4.4%
CCCNC(=O)C1COC2(CCC(C)CC2)N1C(=O)CC (stereo unspecified)	-1.3%
Cc1onc(-c2cnn(C)c2NCc2ccc(C#N)cc2)c1C(=O)NC1CCOCC1	6.2%[70.6 µM]
CC1(c2cccnc2)N(CC2CC2)C(=O)OC12CCN(C(=O)c1ccccc1)CC2 (stereo unspecified)	-7.9%[70.6 µM]
CC(O)c1cc2n(n1)CCN(C(=O)c1nc3ccccc3n(C)c1=O)C2 (stereo unspecified)	-1.5%
Cc1cccc(-c2noc([C@@H]3Cc4nc[nH]c4CN3C(=O)c3ccc(-c4ccccc4)cc3)n2)c1	-26.3%
CCc1cc(C(=O)N2CCC3(CC2)OCCCC3O)n(C)n1 (stereo unspecified)	-2.0%
CCCn1cc(C(=O)N2C[C@@H](N(C)C)[C@H](c3ccc(C)cc3)C2)c(C)n1	0.9%
O=C(Nc1ccc([C@H]2OCC(=O)N(C3CCOCC3)[C@@H]2CO)cc1)C1CCOCC1	5.2%[70.6 µM]
COC[C@@H]1CN(C(=O)CN2CCOCC2)C[C@H]1c1ccncc1	-13.0%

Four of the compounds above, with each value named:
Cc1cc(C)n(CCC(=O)N2CCCCCC2c2nnc(-c3ccccc3)o2)n1 (stereo unspecified)
  NPR1 antag: -1.3%

Cc1noc([C@H]2CCN(Cc3ccc(F)c(F)c3)C[C@H]2NC(=O)C2CC2)n1
  NPR1 antag: 1.1%

CC1(CCCCN2CCOCC2)COc2ccc(C(=O)Nc3ccc(Cl)cc3)cc2N1 (stereo unspecified)
  NPR1 antag: -11.6%

CC(C)(C)C(=O)N1CC[C@@H](CC(=O)O)[C@@H](CCN2CCN(c3ccccc3)CC2)C1
  NPR1 antag: 3.1%[70.6 µM]

Additional structures follow:
SMILES	NPR1 antag
COCCc1noc(C2Cc3ccccc3N2C(=O)NCc2ccco2)n1 (stereo unspecified)	5.5%
CC1CCN(C(=O)C2COC3(CCC(C)CC3)N2C(=O)c2ccc(F)cc2)CC1 (stereo unspecified)	-3.0%
CC(C)c1nc2ccccc2n1CCNC(=O)CC[C@H]1NC(=O)c2ccccc2NC1=O	1.7%
Cc1cccc(CC(=O)N2CCC[C@H](n3c(=O)n(Cc4ccccc4)c4cccnc43)C2)c1	?
O=C(NCCc1noc(-c2ccccc2)n1)c1ccccc1	-15.1%
O=C(c1cccc(C(F)(F)F)c1)N1CCN(C2CCN(Cc3cccnc3)C2=O)CC1 (stereo unspecified)	-9.0%
Cc1cccc(CN2CCc3ncc(C(=O)NCc4ccccc4)n3CC2)n1	-2.1%[70.6 µM]
CCc1nc(C)sc1CNC(=O)[C@H]1CNC[C@H](C(=O)N2CCCC2)C1	-1.0%
COC[C@@H]1CN(C(=O)COc2ccc(Cl)cc2C)C[C@H]1C(N)=O	-17.6%
CCN(CC)C(=O)N1CCC(Oc2ccc(-c3noc(COC)n3)cc2)C1 (stereo unspecified)	7.94µM*
COc1ccccc1N1CCN(C2CCCN(C(=O)c3ccc4nc(C)[nH]c4c3)C2)CC1 (stereo unspecified)	1.1%
Cc1ccc(C(=O)N2CC(C(=O)NC3CCCCC3)C3(CCOCC3)C2)cc1F (stereo unspecified)	1.4%
CCn1c(C(=O)OC)c(NC(=O)C2CCOC2)c2cc(NC(C)Cc3ccccc3OC)cnc21 (stereo unspecified)	-4.6%
COc1ccccc1OC1CCN(Cc2ccccc2C#N)CC1	2.1%
O=C(c1ccsc1)N1CCC(N2CC3CC(C2)[C@H]2CCCC(=O)N2C3)CC1 (stereo partly specified)	-3.2%
O=C(CCc1conc1-c1ccccc1)NCc1ccco1	1.4%
COc1ccccc1/C=C/CN1CCC(n2cc(CN(C)C)nn2)CC1	-1.3%
NC1CCc2nn(CC3CC3)c(=O)n2CC1 (stereo unspecified)	4.5%
Cc1nnc(NC(=O)C[C@H]2NC(=O)c3ccccc3NC2=O)s1	1.3%
Cn1nccc1C(=O)N1CCn2c(nnc2[C@@H]2C[C@@H](O)CN2Cc2ccccc2)C1	4.6%
COc1cc(Cl)c(C)cc1NC(=O)CN1C(=O)NC2(CCC(C)CC2)C1=O (stereo unspecified)	-12.8%
O=C(c1cccc(F)c1)N1C[C@@H](CO)[C@H](c2nc(C3CC3)no2)C1	2.3%
O=C(Nc1ccc(F)cc1)N[C@@H]1C[C@H](CO)[C@@H](O)[C@H]1O	2.1%[70.6 µM]
O=C(c1cc(F)ccc1F)N1CCN(C(=O)c2nnn3c2COC(c2ccc(Cl)cc2)C3)CC1 (stereo unspecified)	?
CC1=C[C@@H](CN2CCN(C)CC2)[C@H](C(C)C)C[C@H]1Cc1nnc(-c2ccc(N(C)C)cc2)o1	1.6%
O=C(NCc1ccccc1-n1cncn1)C1CC(=O)N(Cc2ccccn2)C1 (stereo unspecified)	3.6%
COC(=O)c1ccc2nc(C[C@@H]3C[C@@H](C(C)C)[C@H](CNC4CCN(C)CC4)C=C3C)[nH]c2c1	-12.9%
COc1cccc([S+](=O)([O-])N2CCC3(C2)OC(=O)Nc2ccccc23)c1 (stereo unspecified)	-25.8%
Cc1cnc(CCNC(=O)c2cn(C)cn2)n1CC1CC1	9.5%
O=C(NCCCn1ccnc1)c1nc(-c2ccccc2)cc2[nH]ccc12	?
CC1(COc2ccccc2)COc2ccc(C(=O)NCc3ccccc3)cc2N1 (stereo unspecified)	-22.2%[70.6 µM]
CCC(NC(=O)c1coc(COc2ccc(F)cc2)n1)c1ccncc1 (stereo unspecified)	-19.0%
CCC(C)NC(=O)N1CC(c2nc(CCOCC3CC3)no2)C1 (stereo unspecified)	1.1%
O=C(NCCN1CCOCC1)C1CC(=O)N(c2n[nH]c3ccccc23)C1 (stereo unspecified)	0.0%
O=C([C@@H]1C[C@H](F)CN1S(=O)(=O)c1cc(F)ccc1F)N1CCCCC1	1.9%
CCn1cc(S(=O)(=O)N2C[C@@H](Oc3ccccc3)C[C@H]2C(=O)N2CCCC2)cn1	-3.2%
CC(C)NC(=O)N(C1CC1)C1CCOC2(CCN(C(=O)c3cc4ccccc4[nH]3)CC2)C1 (stereo unspecified)	4.0%
O=C(Cc1ccc(F)cc1)NCc1nnc2cc(-c3nc(C4CC4)no3)ccn12	-2.0%
CCn1nccc1C(=O)NCc1cc(C)cc2c(C)c(-c3ccccc3)[nH]c12	?
O=C(COc1ccc(F)cc1)N1CCC(CCOc2ccccc2F)C1 (stereo unspecified)	-20.8%
O=C(NCC1CCN(c2cc(-c3ccc(F)cc3)[nH]n2)CC1)c1n[nH]c2c1CCCC2	?
CSc1cccc(CN(C)C(=O)c2ccc(CCC(C)(C)O)cc2)c1	?
O=C(N[C@@H]1C[C@H](Cn2cc(CN3CCS(=O)(=O)CC3)nn2)[C@@H](O)[C@H]1O)C1CCCC1	1.0%
COc1cc(CN(C(=O)C2CCC2)[C@H]2CCCCNC2=O)ccc1OCCc1scnc1C	-0.1%
C[C@H]1[C@@H]2[C@@H](O)C([C@H](C)C(=O)NCc3ccc(F)cc3)CC[C@@]2(C)CC[C@@H]1NC(=O)c1cnccn1 (stereo partly specified)	1.0%
COc1ccccc1NC(=O)N1CC[C@H](c2nnc(-c3ccc(C)cc3)o2)C1	-1.2%[70.6 µM]
CO[C@H]1C(=O)N(C2CCN(S(=O)(=O)c3ccc4c(c3)CCC4)CC2)[C@H]1c1ccncc1	2.1%
COCCNC(=O)Cc1ccc(N(Cc2ccc(F)cc2)C(=O)c2ccco2)cc1	-12.1%

5 of the entries above in order of their number in NPR1 antag, high to low:
SMILES	NPR1 antag
Cc1noc(-c2cccs2)c1C(=O)N(C)Cc1ccccc1	1.3%
CCOc1ccccc1CN1CCc2nc(N(C)C)[nH]c(=O)c2CC1	0.9%
CCOCCOC1CCN(C(=O)CCc2ccccc2)CC1	-0.2%
COCCNC(=O)Cc1ccc(N(Cc2ccc(F)cc2)C(=O)c2ccco2)cc1	-12.1%
COc1ccc(CNC(=O)CC2CCOCC2)c(OC)c1	-19.5%

Following part
SMILES	NPR1 antag
Cc1c(Cl)cccc1NC(=O)N1CC(C(=O)N(C)C)C2(CCOCC2)C1 (stereo unspecified)	-1.8%
Cc1cc(Cl)ccc1S(=O)(=O)N1CCC(n2cnnc2C)CC1	-1.8%
COc1ccccc1CN1CCC2(CC1)OC(=O)N(Cc1csc(C)n1)C2(C)c1ccccc1 (stereo unspecified)	-3.1%
COC[C@@H]1CNC[C@H]1c1ccccn1	1.4%
O=c1[nH]c(N2CCc3ccccc3C2)nc2c1CCN(Cc1ccncc1)CC2	-1.6%
Cc1ccccc1CC(=O)N1CCC2(CCC(=O)N(Cc3ccccc3)C2)CC1	2.9%
Cc1noc(C)c1-c1cc(-c2ccc(CN(C)C)cc2)cn2cncc12	0.5%[70.6 µM]
O=C(Cn1nc(-c2ccccc2)n(-c2ccccc2)c1=O)N1C[C@@H]2C[C@H]1CN2	4.0%
COc1cccc(C(O)c2nc(C(=O)Nc3ccc4c(c3)CC(=O)N4)c(C)o2)c1 (stereo unspecified)	1.2%[70.6 µM]
CC1Oc2ccc(NC(=O)c3ccc(F)cc3)cc2CN(Cc2ccccc2F)C1=O (stereo unspecified)	-6.3%
CNCCN1C(=O)CC[C@H]2CN(C(=O)c3ccc(C(C)C)[nH]c3=O)CC[C@H]21	10.2%
CCc1noc(-c2ccn3c(CNC(=O)c4cc(C)cc(C)c4)nnc3c2)n1	2.8%
O=C(NC1CCCC1)N1CC(c2nnc(-c3ccncc3)o2)C2(CCOCC2)C1 (stereo unspecified)	4.5%
CC1=C[C@@H](CNC(=O)CCCC(=O)O)[C@H](C(C)C)C[C@H]1Cc1nc2ccc(Cl)cc2[nH]1	-0.3%
Cn1nc(-c2nncn2CC2CC2)c2c1CCN(C(=O)c1n[nH]c(=O)c3ccccc13)C2	4.0%
CC(C)S(=O)(=O)c1ncc(CN(C)Cc2ccsc2)n1CCc1ccccc1	-14.3%
Cc1ccc(N2CCC(NC(=O)c3ccc(Br)o3)C2=O)cc1C (stereo unspecified)	4.1%
CC(C)c1noc(-c2cn(C3CCCN(C(=O)c4ccc5c(c4)OCO5)C3)nn2)n1 (stereo unspecified)	-4.9%
Cc1cc(C)c(C)c(S(=O)(=O)N2CCC(c3c[nH]c4c(C)cccc34)CC2)c1C	-0.8%
O=C(c1ccsc1)N1CCC(Oc2cccnc2)C1 (stereo unspecified)	3.5%
O=C(CCCc1ccccc1)N1CCC(c2nc(C3CCOCC3)no2)C1 (stereo unspecified)	1.2%
Cc1cn2nnc(C(=O)NCCc3ccccc3)c2c(=O)[nH]1	-3.2%
Cc1ncoc1C(=O)N1CCC(c2noc(-c3ccncc3)n2)C1 (stereo unspecified)	-6.0%
O=C(NCCCc1ccccc1)C1CN(Cc2ccccc2)C(=O)N1 (stereo unspecified)	-5.6%[70.6 µM]

High-throughput results: PubChem BioAssay, National Center for Advancing Translational Sciences (NCATS)

The list is partial. The share of hits here may be higher or lower than overall.
